# NPYLR7 ag – activates Aedes aegypti NPYLR7 receptor | HEK293T NPYLR7/Galpha15, GCaMP6s calcium fluorescence | activation, % at 10 µM | hit rate 0.15% among 270,000; in the data active means activation above about 40%;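 further: 0% = vehicle and 100% = reference agonist at the receptor; some compounds past the cut are filed as inactive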
# NPYLR7 ag max-min – also measured in NPYLR7 ag; calls as there; activation, %; measured here: Max-Min RFU normalised activation; some inactives read as strong as hits;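 span of the calcium signal over five minutes; 0% = vehicle and 100% = native peptide agonist; compound fluorescence can raise it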
# Active calls of the source: *; & = joins results of further samples. The list is partial; count on the stated rates, not on these rows.
SMILES,NPYLR7 ag,NPYLR7 ag max-min
COc1cn2c(cc1=O)C(=O)N(CCNC(=O)c1ccc(C(F)(F)F)cc1)CC2,13,3
COc1ccc(OC)c(NC(=O)C2(C)CCN2Cc2ccc(NC(C)=O)cc2)c1 (stereo not given),7,2
Cc1cccc(CSc2nnc(C(Cc3ccccc3)NS(=O)(=O)c3ccc([N+](=O)[O-])cc3)n2-c2cc(Cl)ccc2C)c1 (stereo not given),-5,0
CCOc1cccc(C=NNC(=O)c2cc(C3CC3)[nH]n2)c1O,17,13
Clc1ccc(Cc2nc(-c3ccncc3)no2)cc1,-1,-3
Cn1c(N)c(C(=O)Cn2cc(C(F)(F)F)cc(Cl)c2=O)c(=O)n(C)c1=O,-2,-4
COc1cccc(OCC(=O)N2CCNCC2C(=O)NC2CC2)c1 (stereo not given),-5,-6
Cc1csc(SCc2cc(=O)c(OC(=O)c3cc4ccccc4o3)co2)n1,-1,-4
CC1=C(/C=C/C(C)=C/C=C/C(C)=C/CO)C(C)(C)CCC1,-10,-14
COC(=O)CCc1c(C)nn(-c2ccc(C(=O)NCCOc3ccccc3)cc2)c1C,15,8
CCOC(=O)c1nn(-c2ccc(Cl)cc2)c(=O)c2c(NC(=O)COc3ccccc3)scc12,10,5
Cc1ccc2nc(-c3cc(NC(=O)c4ccccc4I)ccc3Cl)oc2c1,-7,2
COc1ccccc1N1CCN(C(=O)c2cc(-c3ccccc3Cl)nn2-c2cccc(C)c2)CC1,-4,5
NC(=O)c1cnn2c(C(F)(F)F)cc(-c3ccccc3)nc12,-10,-15
Cc1cccc(-c2n[nH]c(=S)n2CCC(=O)NC2CCCC2)c1,10,7
CCN(Cc1ccc(OC)c(F)c1)Cc1nc(N)nc(N)n1,10,6
CC(=O)Nc1ccc2c(c1)nc(CCn1ccccc1=O)n2C,-15,-22
COc1cccc(N2CC(NC(=O)NCCn3c(C)cc4ccccc43)CC2=O)c1 (stereo not given),-2,-3
O=P1(Nc2ccccc2Br)C=C(c2ccccc2)OC(c2ccccc2)=C1,18,9
COc1ccc(N2C(=O)CN(C(=O)c3cc(CC(C)C)[nH]n3)CC23CCCC3)cc1,22,7
COc1ccc(C(=O)N(CC(=O)N(Cc2ccccc2)Cc2ccco2)CC2CCCO2)cc1 (stereo not given),-4,-1
CCc1nc2c(OCCOc3ccc(F)cc3)cccn2c1N(C)C(=O)c1cccs1,7,-3
C=C=CCCC(NS(=O)(=O)c1ccc(C)cc1)C(=O)OCC (stereo not given),-7,-10
O=C(NCC1CCCN(Cc2ccc3cccc(F)c3n2)C1)c1cccs1 (stereo not given),7&-6,2&-7
Cc1cc2c(c(=O)n1C)C1(C(=O)N(Cc3ccccc3)c3ccccc31)C(C#N)C(=N)O2 (stereo not given),1,-5
SMILES,NPYLR7 ag,NPYLR7 ag max-min
CCC(C)C(C)N(C(=O)Nc1cc(C(N)=O)ccc1C)C1CC1 (stereo not given),4,5
Fc1ccccc1Cc1noc(CN2CCC(N3CCSCC3)CC2)n1,8,4
COc1ccc(-c2ccc(N3CCC(C(=O)NC4CC4)CC3)nn2)cc1,-6,-11
COCCn1c(C)cc(O)c(C(c2ccc(F)cc2)N2CCN(C)CC2)c1=O (stereo not given),11,4
[O-][n+]1ccccc1Oc1ncnc2sc3c(c12)CCCC3,31,49
Cc1ccc(OC2(C(=O)N(C)Cc3cc(C4CC4)n[nH]3)CCNCC2)cc1,5,2
O=C(NC(c1ccc(Cl)cc1)c1cnccn1)C1CCN(CCc2ccccc2)CC1 (stereo not given),10,-1
Cc1occc1C(=O)N(CCCn1ccnc1)Cc1ccncc1,-1,-7
Nc1ncnc2c1ncn2C1O[C@H](CO)[C@@H](O)[C@@H]1O (stereo not given in full),-4,-7
Cc1cccn2c(=O)cc(CN3CCc4sccc4C3c3cccs3)nc12 (stereo not given),7,8
Cc1cnc(CNC(=O)c2cncn2-c2ccc(-c3cc(C(F)(F)F)cc(C(F)(F)F)c3)cc2)cn1,1,-4
Cc1nnc(-c2ccccc2C(=O)O)o1,-9,-9
CCCCC(=O)N(C)c1c(CC)nc2c(OCc3ccc4c(c3)OCO4)cccn12,-18,-8
COCCCNC(=O)c1cc2n(n1)CCN(Cc1ccc(C(F)(F)F)cc1)C2=O,21,13
CCOC(=O)C1CN(C(=O)OC(C)(C)C)CCN1C(=O)c1cc(CC)c(C)s1 (stereo not given),4,-2
CCCCNc1ncc(-c2ccc(CN3CCOCC3)cn2)c(NC2CCC(O)CC2)n1 (stereo not given),-7,-14
Cc1ccc(C(=O)N2CCC(C3(C)NC(=O)N(Cc4ccsc4)C3=O)CC2)cc1C (stereo not given),5,4
COc1ccc(Cl)cc1Cn1c(C)c(C(=O)NCc2ccc(OC)c(OC)c2)sc1=O,8,3
ClC12CC3CC(C1)CC(c1nnc(-c4ccco4)o1)(C3)C2,0,0
O=C(c1cc(-c2ccc(F)cc2)nn1-c1ccc([N+](=O)[O-])cc1)N1CCN(c2ccccc2F)CC1,14,17
COCCCNC(=O)c1ccccc1N1CCC(NC(=O)c2ccccc2OC)CC1,1,8
CC(C)Sc1nnc(-c2cnn(-c3ccccc3)c2N)n1Cc1ccccc1,3,2
c1ccc(-c2nc(NC3CC3)nc(-n3ccnc3)n2)cc1,-1,-2
COc1ccc(S(=O)(=O)N2CCC(C(NC(=O)c3ccc4c(c3)OCO4)C(=O)NC3CC3)CC2)cc1 (stereo not given),0,2
O=C(c1cccc([N+](=O)[O-])c1)N1CCC(c2ccccc2)CC1,-6,-14
SMILES,NPYLR7 ag,NPYLR7 ag max-min
COc1ccc(-n2ccc3c(cnc4c(-c5ccc(F)cc5)c(C)nn43)c2=O)c(OC)c1,10,10
Cc1ccc(N2C(=O)CSC2c2ccccc2NC(=O)c2ccc(F)cc2)cc1C (stereo not given),5,13
C[C@@H]1CN(Cc2ccc3c(c2)CN(Cc2nc(-c4ccccc4)cs2)CCO3)C[C@H](C)O1,3,-1
CCc1ccccc1Nc1nnc(Cc2ccc(F)cc2)c(=O)[nH]1,15,9
NC(=O)C1CCCN(Cc2nnc(-c3ccccc3)o2)C1 (stereo not given),-11,-10
CN(C(=O)C1(c2cccc(F)c2)CCOCC1)c1nc2ccccc2s1,4,1
COc1ccc(NC(=O)NCCn2nc(-c3cccnc3)ccc2=O)c(OC)c1,15,8
COc1ccc(CNC(=O)c2cccnc2N2CCN(C(=O)C3CC3)CC2)cc1,23,14
Cc1ccc([N+](=O)[O-])cc1S(=O)(=O)N(Cc1nnc(-c2ccc(Cl)cc2)o1)C1CC1,-3,-3
Cc1ccc(CN(Cc2ccccc2)C(=O)CN(CCN2CCOCC2)C(=O)Nc2ccccc2C)o1,-8,-5
O=C1CCCN1C1CCCN(CCn2cc[nH]c2=O)C1 (stereo not given),5,2
CC(Oc1cccc(Cl)c1)C(=O)N1CCOC(COCc2cccc(C(F)(F)F)c2)C1 (stereo not given),4,5
CN(CC(=O)NC(C)(C)C)c1ncnc2sccc12,8,5
CC1C(=O)N(c2ccc(F)cc2)CCN1C(=O)c1ccc([N+](=O)[O-])cc1 (stereo not given),2,6
CCOC(=O)N1CCN(C(=O)c2cc(-c3ccc(F)cc3)n(-c3cccc(C)c3)c2C)CC1,25,26
Oc1oc(-c2ccc(Br)cc2)nc1C=Nc1ccc(F)cc1,-3,-5
COc1ccc(NC(=O)CN2C(=O)c3ccccc3NC23CCN(C)CC3)cn1,49*,69*
CCCCCc1ccc(C(=O)Nc2cccc(-c3cccc(-c4ccc(OC)cc4)n3)c2)cc1,22,28
CNC(=O)NC(=O)CCSCCCc1ccccc1,10,11
COC(=O)c1ccc2c(c1)N(C)C(=O)CO2,-6,-7
Cc1ccc2[nH]c3c(=O)n(CC(=O)NC(C)C)cnc3c2c1,2,-2
Cc1nccc(-c2ccccc2)c1C(=O)NCC1(O)CCCNCC1 (stereo not given),-1,-4
COc1ccc(CCNC(=O)CCc2cc3c(n2-c2cc(OC)cc(OC)c2)-c2ccccc2CC3)cc1,-2,-3
CCCCC(=O)Nc1ccc(NC(=O)CS(C)(=O)=O)cc1C,29,17
Cc1cc(C)cc(N2CCN(Cc3nc[nH]c3C)CC2=O)c1,1,-1

# Compound profiles, as listed above. Screens in order: NPYLR7 ag | NPYLR7 ag max-min
# `COc1ccc(CCNC(=O)CCc2cc3c(n2-c2cc(OC)cc(OC)c2)-c2ccccc2CC3)cc1` is listed as -2 | -3
# `CC1C(=O)N(c2ccc(F)cc2)CCN1C(=O)c1ccc([N+](=O)[O-])cc1` (stereo not given) is listed as 2 | 6
# `CNC(=O)NC(=O)CCSCCCc1ccccc1` is listed as 10 | 11
# `COc1ccc(-n2ccc3c(cnc4c(-c5ccc(F)cc5)c(C)nn43)c2=O)c(OC)c1` is listed as 10 | 10

# Going on with the list.
SMILES,NPYLR7 ag,NPYLR7 ag max-min
CCC(C)N(Cc1sccc1C)C(=O)CCc1ccncc1 (stereo not given),1,-2
CCOc1ccc(-c2cc(C(=O)NCc3cccc(F)c3F)c3ccccc3n2)cc1,0,-13
Cc1ccc(C)c(OCC(=O)Nc2cccc(C(=O)NN3C(=O)c4ccccc4C3=O)c2)c1,10,6
COc1cc(C)ccc1-c1c(-c2ccccc2)ncn1C1CCCN(C(C)=O)C1 (stereo not given),2,-3
O=c1[nH]c2nccnc2c(=O)n1CCc1ccccc1,5,4
Cc1ccc(CNC(=O)C(NC2CCOCC2)C(C)C)n1C (stereo not given),-4,-4
Cc1cc(N2CCN(C(=O)c3ccc(Br)cc3)CC2)nc(-c2cccc(C(F)(F)F)c2)n1,21,17
COc1cccc(NC(=O)C2(C)CCN2Cc2cc3ccccc3o2)c1 (stereo not given),1,-2
CCCCc1ccc(C(=O)N(CCCC)CC(=O)N2CC(=O)N(c3cccc(C)c3)C2)cc1,2,14
NCCc1cc(N2CCC[C@H]2CO)ncn1,16,2
O=C(NCc1ccco1)C1CCCN(S(=O)(=O)c2ccc(Br)cc2)C1 (stereo not given),4,1
CCOCCOc1nc(-c2ccco2)n(-c2ccc(NC(=O)c3ccc(C(F)(F)F)cc3)cc2)n1,0,7
CNC[C@H](O)[C@@H](O)[C@H](O)[C@H](O)CO,-12,4
O=c1cc(NCC2(c3ccccc3)CCC2)nc2ccccn12,1,-1
COc1ccc(C(=O)NC2CCN(c3ccccc3C(=O)NCc3ccncc3)CC2)cc1,1,12
Cc1ccc(F)cc1CC(=O)N(CC1CCC(=O)N1)C(C)C (stereo not given),0,-1
O=C(O)C[C@H]1c2cccnc2C(=O)N(C2CC2)[C@@H]1C(=O)O,0,12

# Structural class, those above containing an aryl thioether with sulfur outside any ring
SMILES,NPYLR7 ag,NPYLR7 ag max-min
Cc1cccc(CSc2nnc(C(Cc3ccccc3)NS(=O)(=O)c3ccc([N+](=O)[O-])cc3)n2-c2cc(Cl)ccc2C)c1 (stereo not given),-5,0
Cc1csc(SCc2cc(=O)c(OC(=O)c3cc4ccccc4o3)co2)n1,-1,-4
CC(C)Sc1nnc(-c2cnn(-c3ccccc3)c2N)n1Cc1ccccc1,3,2

# Reprinted at random: four records from the list
SMILES,NPYLR7 ag,NPYLR7 ag max-min
CNC[C@H](O)[C@@H](O)[C@H](O)[C@H](O)CO,-12,4
COc1ccc(C(=O)NC2CCN(c3ccccc3C(=O)NCc3ccncc3)CC2)cc1,1,12
O=C(NCc1ccco1)C1CCCN(S(=O)(=O)c2ccc(Br)cc2)C1 (stereo not given),4,1
Cc1ccc(CNC(=O)C(NC2CCOCC2)C(C)C)n1C (stereo not given),-4,-4

# Source: PubChem
